High-throughput results from PubChem.
KOR beta-arrestin-1 – kappa opioid receptor blockers – cell-based, luminescence, uHTS (AID 1778). KOR beta-arrestin recruitment, luminescence, antagonist mode; higher % means a stronger effect. inhibition, % at 10 µM; hits with a dose series show IC50 in µM. 290,000 compounds, 0.091% hits; in the data active means inhibition above about 50%; further: strong numbers were not always called active
KOR beta-arrestin-2 – kappa opioid receptor activators – cell-based, luminescence, uHTS, primary screen (AID 1777); KOR beta-arrestin recruitment, luminescence; higher % means a stronger effect; one-dose activation, % at 10 µM; EC50 in µM for titrated hits; 280,000 compounds, 0.02% hits; in the data active means activation above about 50%, passing the limit was not always enough; further: a part of the inactive calls stands beside numbers as strong as those of hits
GPR55 beta-arrestin – GPR55 agonists via beta-arrestin recruitment, primary screen, imaging, U2OS cells, beta-arrestin-GFP redistribution (AID 1961). U2OS GPR55 beta-arrestin-GFP redistribution imaging; higher % means a stronger effect. activation, % at 10 µM; hits with a dose series show EC50 in µM. 290,000 compounds, 0.048% hits;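 active means activation above 40% with more than 50 cells counted in the well; inconclusive means wells holding fewer than 50 cells, flagged as toxic or sparse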;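 further: U2OS osteosarcoma cells stably expressing GPR55 and beta-arrestin-GFP; plate controls were DMSO negative control for no effect and LPI positive control for full effect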
UTI89 phage lysis – inhibition of K1F phage lysis, E. coli UTI89, bacterial capsule biogenesis inhibitors, alamar blue (AID 488966). 340,000 compounds, 0.02% hits. E. coli UTI89 K1F phage lysis, alamar blue, 2 h; higher % means a stronger effect. inhibition, % at 100 µM; hits with a dose series show IC50 in µM;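 active means phage lysis inhibition, versus mean bacterial control, above a set limit; inconclusive means no clear call, values can overlap the other calls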;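 further: capsule biogenesis inhibitors block K1F phage lysis so surviving cells raise fluorescence; higher fluorescence means more inhibition of phage lysis; actives were called in the ten point dose series up to 300 µM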
Rac1 GTP hydrolysis – MgcRacGAP GTPase-activating activity inhibitors, confirmation, biochemical, ADP Hunter fluorescence; AID 624330; MgcRacGAP-stimulated Rac1 GTP hydrolysis, ADP Hunter fluorescence; higher % means a stronger effect; GST-tagged Rac1 F28L mutant substrate; inhibition, % at 30 µM; hits with a dose series show IC50 in µM; 340,000 compounds, 0.6% hits;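 active means first-screen hits whose inhibition reached a set limit at any dose in the follow-up dose series; inconclusive means inhibition above the set first-screen limit but never retested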;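 further: fluorescence reports GDP produced by GAP-driven GTP hydrolysis; strong numbers were not always called active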
GPR35 antagonists – GPR35 antagonists blocking zaprinast-driven arrestin recruitment, primary screen, imaging, U2OS, beta-arrestin-GFP, zaprinast agonist (AID 2058). U2OS GPR35 beta-arrestin-GFP translocation imaging, zaprinast antagonism; higher % means a stronger effect. one-dose inhibition, % at 10 µM; IC50 in µM for titrated hits. 290,000 compounds, 0.052% hits;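 active means inhibition of at least 50% with at least 30 cells and total cytoplasm GFP at most 10,000,000; inconclusive means under 30 cells or total GFP of 10,000,000 plus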
NTR1 ag – NTR1-driven beta-arrestin-GFP spot formation – imaging, U2OS cells, high content, primary screen (AID 493036); P30989; agonist mode; activation, % at 20 µM; 330,000 compounds, 0.17% hits;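 active means activation at or above 40% of the spot to cytoplasm intensity ratio, with at least 20 cells analyzed; inconclusive means wells under 20 cells, flagged as cytotoxic or low count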;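 further: 0% = DMSO without peptide and 100% = 100 nM NTR1 peptide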
Target sequence (P30989 whole entry, looked up): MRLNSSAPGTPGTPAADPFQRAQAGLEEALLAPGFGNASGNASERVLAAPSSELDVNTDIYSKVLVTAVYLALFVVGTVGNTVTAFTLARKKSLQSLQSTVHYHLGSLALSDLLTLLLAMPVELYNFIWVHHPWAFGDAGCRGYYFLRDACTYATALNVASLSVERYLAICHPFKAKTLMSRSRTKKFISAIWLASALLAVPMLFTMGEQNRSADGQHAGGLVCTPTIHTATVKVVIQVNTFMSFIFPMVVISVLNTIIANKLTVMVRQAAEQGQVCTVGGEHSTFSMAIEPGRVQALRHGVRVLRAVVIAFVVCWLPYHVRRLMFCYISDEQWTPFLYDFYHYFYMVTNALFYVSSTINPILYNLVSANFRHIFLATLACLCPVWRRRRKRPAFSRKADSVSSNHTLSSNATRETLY
GPR55 antagonists – inhibition of LPI-stimulated GPR55 beta-arrestin translocation – imaging, U2OS, beta-arrestin-GFP, LPI agonist, primary screen (AID 2013); U2OS GPR55 beta-arrestin-GFP translocation imaging, LPI antagonism; higher % means a stronger effect; inhibition, % at 10 µM; hits with a dose series show IC50 in µM; 290,000 compounds, 0.13% hits;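 active means spots per cell inhibited over 60%, with over 100 cells counted and total cytoplasm intensity under 500,000; inconclusive means wells with under 100 cells, flagged as likely toxic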;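 further: U2OS cells stably carrying GPR55 and arrestin-GFP stimulated by 5 µM LPI near EC80; imaged beta-arrestin-GFP aggregate spots per cell after agonist stimulation; plate controls were LPI-stimulated DMSO wells for no effect and DMSO wells without LPI for full effect; some results filed as inactive read as strong as hits; confirmed hits need IC50 under 10 µM and bright autofluorescent wells are also inconclusive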
NTR1 ag cell count 20 µM – second read-out of NTR1 ag, no call of its own (marks repeat the call); cell count; measured here: cell count, cytotoxicity flag
* marks the source's active call; other numbers are inactive results; ? = inconclusive; . = not tested or not shown; [ ] = another dose, or the depositor's remark. An excerpt (hit frequency here may not be typical).

SMILES	KOR beta-arrestin-1	KOR beta-arrestin-2	GPR55 beta-arrestin	UTI89 phage lysis	Rac1 GTP hydrolysis	GPR35 antagonists	NTR1 ag	NTR1 ag cell count 20 µM	GPR55 antagonists
COc1ccccc1-c1nnc(Nc2nc3c(OC)cccc3s2)o1	56.8%	-7.8%	-0.1%	0.4%	6.9%	-16.4%	-2.1	95	-6.3%
CCOc1ccc(/C=C/C(O)=C2/C(=O)N(C)C3(C)CC2c2ccccc2O3)cc1OC (configuration not stated)	-29.8%	3.2%	0.2%	-0.2%[50 µM]	-1.9%	-5.5%	10.2	49	-5.0%
O=C(N/N=C/c1ccc([N+](=O)[O-])s1)c1ccccc1Br	6.2%	-1.2%	-0.1%	-7.8%	4.3%	0.8%	0.0	47	11.7%
Nc1ccc(N(c2ccccc2)c2ccc(N)cc2)cc1	15.5%	-0.1%	-0.2%	0.1%	8.57µM*	6.5%	5.6	79	21.3%
NC(=O)c1sc2nc3c(c(-c4ccco4)c2c1N)CCCC3	-6.4%	12.7%	0.0%	0.8%	15.6%	-10.0%	3.9	59	-0.7%
C/C(=N\Nc1nnc(C)c(=O)[nH]1)C(=O)O	-29.2%	2.7%	0.2%	6.6%	5.7%	6.2%	-0.5	71	-3.9%
C=CCN1C(=O)/C(=C/c2ccc(OC(C)=O)c(OCC)c2[N+](=O)[O-])SC1=S	-19.6%[20 µM]	-8.1%	-0.1%	0.2%	11.6%	-28.8%	.	.	1.4%
CC(C)(C)c1ccc(C(=O)Nc2ccc(NC(=O)c3ccco3)cc2)cc1	15.9%	0.8%	-0.1%	0.0%	2.8%	11.1%	15.9	31	14.5%
O=C(CSc1nc2ccccc2s1)N1c2ccccc2Sc2ccccc21	-22.7%	1.9%	.	0.2%	10.4%	-7.4%	3.9	88	16.6%
Cc1ccc(N(C(=O)CCl)C(C(=O)NC2CCCCC2)c2cccnc2)cc1C (configuration not stated)	-4.0%	11.7%	0.2%	.	.	4.8%	.	.	9.9%
CCOc1ccc(Nc2nc(N)nc(CCl)n2)cc1	-39.8%	9.0%	-0.1%	0.0%	7.4%	-8.9%	8.5	61	-5.9%
CCOC(=O)N1CCN(C(=O)C2CCCN(Cc3nc(-c4ccc(Cl)cc4)oc3C)C2)CC1 (configuration not stated)	-19.1%	-0.1%	-0.2%	4.2%	14.3%	6.0%	0.0	67	-5.3%
Cc1cc(C(=O)CSc2nc3ccccc3c(=O)n2C)c(C)n1CC1CCCO1 (configuration not stated)	4.5%	-1.2%	0.4%	.	.	6.5%	.	.	9.0%
COc1cc(C2NC(=O)NC(c3ccccc3)=C2C(C)=O)ccc1OCC(=O)O (configuration not stated)	19.3%	-2.7%	0.2%	4.7%	4.4%	8.9%	0.8	52	2.1%
CN(c1ccccc1)S(=O)(=O)c1ccc(NC(=O)c2nc(S(C)(=O)=O)ncc2Cl)cc1	35.2%	-5.6%	0.6%	14.3%	8.6%	15.9%	2.5	45	10.1%
O=C(Nc1ccc(Oc2cccnc2)cc1)C1CCN(Cc2cc(Cl)ccc2O)CC1	-13.5%	4.4%	-0.1%	0.2%	.	17.3%	3.0	85	-13.2%
COc1cc(C)c(Br)cc1S(=O)(=O)NCc1ccncc1	-10.6%	-2.1%	-0.2%	-3.1%	3.4%	-0.9%	2.7	58	13.2%
O=C(N/N=C1/C(=O)c2cccc3cccc1c23)c1ccc(Cl)cc1	75.3%	.	0.0%	-1.2%	6.6%	11.4%	18.2	54	-1.2%
COc1cccc(N(CC(=O)Nc2cccc(C(C)=O)c2)S(C)(=O)=O)c1	-26.8%	1.8%	0.0%	0.1%	12.3%	6.2%	1.7	41	2.8%
CC(C)(C)c1cc(NC(=O)CCl)n(-c2ccccc2)n1	21.5%	1.4%	-0.1%	0.3%	-8.6%	5.6%	1.2	58	3.3%
N#Cc1c(NC(=O)CSc2ncn[nH]2)sc2c1CCCCC2	12.2%	-2.2%	-0.1%	0.4%	8.9%	-0.6%	8.3	77	-4.3%
Cc1ccccc1N=Nc1ccc(O)c2ncccc12	4.11µM*	1.2%	0.9%	1.9%	8.3%	-16.8%	.	.	8.2%
CC(C)(C)C(=O)/C(=C/c1ccc(Cl)cc1)n1cncn1	-0.8%	-2.1%	0.0%	-1.0%[50 µM]	8.4%	-13.5%	8.0	81	2.7%
O=C(C1CCC(CNS(=O)(=O)c2cccs2)CC1)N1CCN(c2ccc(Cl)cc2)CC1 (configuration not stated)	-27.4%	6.8%	-0.4%	-0.1%	17.6%	9.2%	7.3	59	12.9%
Cc1cc(NC(=O)c2cccs2)n(-c2nc3ccccc3[nH]2)n1	-7.4%[20 µM]	-1.3%	0.2%	-0.1%	-13.8%	1.3%	7.7	95	11.2%

The final 2 entries of the section above are carried over, then new ones follow:
SMILES	KOR beta-arrestin-1	KOR beta-arrestin-2	GPR55 beta-arrestin	UTI89 phage lysis	Rac1 GTP hydrolysis	GPR35 antagonists	NTR1 ag	NTR1 ag cell count 20 µM	GPR55 antagonists
O=C(C1CCC(CNS(=O)(=O)c2cccs2)CC1)N1CCN(c2ccc(Cl)cc2)CC1 (configuration not stated)	-27.4%	6.8%	-0.4%	-0.1%	17.6%	9.2%	7.3	59	12.9%
Cc1cc(NC(=O)c2cccs2)n(-c2nc3ccccc3[nH]2)n1	-7.4%[20 µM]	-1.3%	0.2%	-0.1%	-13.8%	1.3%	7.7	95	11.2%
NC(=S)N/N=C\c1c(OCc2ccccc2Cl)ccc2ccccc12	-6.6%	-2.4%	-0.5%	-0.5%	-5.4%	11.5%	12.8	27	8.2%
CC1=C(C(=O)NC2CCCc3c2cnn3-c2ccc(F)cc2F)OCCO1 (configuration not stated)	-11.1%	1.4%	-0.1%	0.2%	9.4%	11.8%	0.8	44	9.7%
Cc1nnc(SCC(=O)N2CCC(c3noc4ccc(F)cc34)CC2)s1	27.4%	0.9%	0.5%	5.0%	11.7%	4.5%	3.1	56	-3.4%
Cc1ccc(S(=O)(=O)CCC(=O)Nc2nc3c(s2)CCCC3)cc1	-15.1%	1.3%	-0.1%	-0.5%	1.6%	2.7%	0.4	43	-12.6%
COc1ccc(S(=O)(=O)/N=C2\C=C(Nc3ccc(O)cc3)C(=O)c3ccccc32)cc1	-30.2%	-7.5%	-0.2%	-1.0%	50.6µM*	-1.4%	27.2	44	10.8%
CCOC(=O)c1c(-c2ccccc2)oc2cc(Br)c(O)c(C=O)c12	10.6%	-4.5%	0.3%	1.6%[50 µM]	-2.4%	14.7%	.	.	14.7%
Cc1ccc(NC(=S)N/N=C/c2ccc([N+](=O)[O-])s2)cc1	18.4%	0.2%	-0.1%	-0.9%[50 µM]	16.2%	-1.6%	2.1	64	10.8%
O=C(CCl)N1c2ccccc2OCC1c1ccccc1 (configuration not stated)	-43.9%	-5.4%	-0.1%	0.2%	8.0%	10.8%	-0.3	51	24.3%
CCN(CC)c1ccc(/C=C/c2cccc[n+]2C)c(OC)c1	-18.9%[20 µM]	-3.7%	-0.3%	0.1%	21.2%	36.8%	-2.6	63	-1.7%
Cc1ccc(-n2[nH]c(C)c(/C=N/Nc3ccc([N+](=O)[O-])cc3[N+](=O)[O-])c2=O)cc1C	54.9%	-1.9%	-0.3%	-1.0%[50 µM]	25.1%	-15.4%	11.8	76	5.3%
N#Cc1nc(-c2ccc(OCc3ccc(Cl)cc3)cc2)oc1NCCCn1ccnc1	9.9%	3.7%	-0.3%	5.8%	0.2%	10.1%	3.5	37	-1.9%
Cc1ccc(-n2nc3c(=O)n(C(C)C(=O)NCCC4=CCCCC4)nc(C)c3c2C)cc1 (configuration not stated)	-17.0%	0.2%	-0.1%	0.2%	8.8%	11.0%	-0.7	72	7.4%
N#Cc1nc(-c2ccc(OCc3ccccc3Cl)cc2)oc1NCCCn1ccnc1	-5.2%	22.4%	0.6%	.	.	5.6%	19.0	43	3.6%
Cc1cc(-c2ccc(/C=N/n3cnnc3)o2)c([N+](=O)[O-])cc1C	-0.6%	-1.9%	0.0%	0.1%	10.6%	12.0%	2.3	83	-5.6%
Fc1ccccc1/C=N/Nc1nc(-c2ccccn2)nc2ccccc12	6.19µM*	-7.2%	-0.1%	.	.	5.8%	0.9	57	8.9%
N#CC1=C(N)N2C(=C(C#N)C1c1cccc(Br)c1)Nc1ccccc12 (configuration not stated)	11.8%	0.2%	0.2%	0.2%	12.5%	-14.2%	13.2	69	-1.2%
C/C(=N\NC(=O)c1nnn(-c2nonc2N)c1CN1CCCCC1)c1ccccc1O	-37.7%	4.5%	0.3%	-1.2%	6.1%	2.4%	1.5	49	-19.5%
COc1ccc(C(=O)N2CC3(CC(c4ccc(Cl)cc4)=NO3)C[C@H]2C(=O)NCC(N)=O)cc1 (some centres not stated)	-10.1%	1.5%	0.2%	0.2%	12.6%	-0.1%	1.3	93	23.2%
COc1cc(/C=C2\SC(=N)N(c3ccc(F)cc3)C2=O)ccc1O	-30.7%	-3.2%	0.5%	0.9%	20.9%	-11.5%	-0.7	78	-1.9%
Cc1ccc(NC2=C/C(=N\S(=O)(=O)c3cccs3)c3ccccc3C2=O)c(C)c1	12.1%	1.2%	0.1%	-4.9%	0.8%	-4.3%	0.5	8	1.87µM*
O=C(/C=C/c1ccccc1)N/C(=C/c1ccccc1)C(=O)NCCO	7.9%	1.5%	0.7%	0.8%	5.7%	3.4%	-0.1	79	-2.9%
O=C1CSc2ccc(C(=O)Nc3cccc(S(=O)(=O)Nc4ccc(Br)cc4)c3)cc2N1	-52.8%[20 µM]	2.5%	0.2%	-0.2%	5.5%	-27.9%	26.2	91	17.6%
COc1ccc(C2=Nn3c(nnc3-c3ccncc3)SC2)cc1	23.5%	-2.5%	-0.1%	0.1%	9.8%	17.0%	9.9	67	-2.6%
CCN1/C(=C\c2ccc3ccccc3[n+]2CC)Sc2cc(C)ccc21	-0.7%[20 µM]	3.6%	-0.3%	0.1%	81.3µM*	?	-4.2	66	?

4 compounds already listed, arranged by formula weight, largest number first:
SMILES	KOR beta-arrestin-1	KOR beta-arrestin-2	GPR55 beta-arrestin	UTI89 phage lysis	Rac1 GTP hydrolysis	GPR35 antagonists	NTR1 ag	NTR1 ag cell count 20 µM	GPR55 antagonists
Cc1ccc(NC2=C/C(=N\S(=O)(=O)c3cccs3)c3ccccc3C2=O)c(C)c1	12.1%	1.2%	0.1%	-4.9%	0.8%	-4.3%	0.5	8	1.87µM*
Cc1nnc(SCC(=O)N2CCC(c3noc4ccc(F)cc34)CC2)s1	27.4%	0.9%	0.5%	5.0%	11.7%	4.5%	3.1	56	-3.4%
NC(=S)N/N=C\c1c(OCc2ccccc2Cl)ccc2ccccc12	-6.6%	-2.4%	-0.5%	-0.5%	-5.4%	11.5%	12.8	27	8.2%
CCN(CC)c1ccc(/C=C/c2cccc[n+]2C)c(OC)c1	-18.9%[20 µM]	-3.7%	-0.3%	0.1%	21.2%	36.8%	-2.6	63	-1.7%
